# Screening results: PubChem BioAssay, National Center for Advancing Translational Sciences (NCATS)
# StopGo FLuc = Primary qHTS Assay for Foot and Mouth Disease Virus Antivirals against NCGC Sytravon and CBC Compound Libraries: Firefly Luciferase Signal; Potency, µM (titrated, usually from 57.5 µM), for inactives: at the highest dose signal change, negative = less light; 0.23% of 120,000 active; AID 1745856, 2022; HEK cells with a luciferase reporter of 2A StopGo recoding; active = well fitted falling curve with a large enough effect; inconclusive = small, poorly fitted or top-dose-only effect; inactive = no such curve, though single readings can be large or run the other way; note: nearly all actives have a fitted effect of over 60% in size; overnight with compound
# 2A Renilla = Primary qHTS Assay for Foot and Mouth Disease Virus Antivirals against NCGC Sytravon and CBC Compound Libraries: Renilla Luciferase Signal | HEK cells with a luciferase reporter of 2A StopGo recoding | Potency, µM (series often up to 57.5 µM), without a hit: top-dose signal change, negative = less light | 0.32% of 120,000 active | AID 1745857, 2022; active means well fitted falling curve with a large enough effect; inconclusive means small, poorly fitted or top-dose-only effect; inactive means no such curve, though single readings can be large or run the other way; note: nearly all actives have a fitted effect of over 55% in size; overnight with compound
# Starred values were filed as active, the others as inactive; u = inconclusive; & = joins results of further samples; [ ] = remark or other dose. % is set by controls: 0 for no effect and ±100 for the full control effect; potency is the fitted concentration of half-maximal effect. These rows are one share of the data; the hit share may differ from the screen's.
SMILES,StopGo FLuc,2A Renilla
Cc1nc2cc(NC(=O)c3ccc(Cl)c(Cl)c3)ccc2o1,15.4%,u
O=C(NCc1ccccc1)c1ccc2c(c1)nc1n2CCOC1,u,u
CC(C)Oc1cccc(C(=O)Nc2ccc3oc(-c4ccccc4)nc3c2)c1,-24.0%,u
Cc1ccc(NC(=O)C2CCN(c3cnc4ccccc4n3)CC2)cc1Cl,20.6%,2.0%
CC(=O)NCc1ccc(-c2csc(-c3ccccc3)n2)o1,226.7%[activator],12.3%
O=C(Nc1ccc(Br)cc1)C1CC2CCC1C2 (stereo not given),0.0%,-4.4%
COc1ccc(CNC(=O)C2CCN(S(=O)(=O)c3ccc4nc5c(c(C(=O)O)c4c3)CC(C)CC5)CC2)cc1 (stereo not given),6.6%,-12.6%
O=C(NCc1ccc(C(F)(F)F)cc1)C1CCN(S(=O)(=O)/C=C/c2ccccc2)CC1,-4.7%,-1.1%
O=C(O)CNS(=O)(=O)c1ccc(Br)cc1,24.0%,-3.9%
COc1ccccc1/C=C/c1nc(C#N)c(NC2CCCCC2)o1,66.7%[activator],37.4%[activator]
Fc1ccc(/C=C2\CCCC3=C2N=C2SC=C(c4ccccc4)N2C3c2ccc(F)cc2)cc1 (stereo not given),-0.6%,16.7%
CC(=O)c1ccc(C(=O)NC(C)c2ccc(OC(F)F)cc2)s1 (stereo not given),43.8%[activator],-6.4%
COc1cc(C(=O)O)c(Br)cc1OC(C)C,-2.0%,-5.0%
COc1ccc(C)cc1NC(=O)CNC(=O)CNc1ccc(F)c(NC(C)=O)c1,-11.3%,-8.0%
COc1ccc(NC(=C(C#N)C#N)C(F)(F)Cl)cc1,25.2%,1.2%
Cc1sc2nc(SCC(=O)N3CCCCC3)[nH]c(=O)c2c1C,10.2%,-3.5%
O=C(NCC(c1ccccc1)c1ccccc1)c1n[nH]c(=O)c2ccccc12,9.9%,6.1%
CCOC(=O)c1ccc(CN(Cc2ccc(F)cc2)S(=O)(=O)c2cc(C(=O)Nc3ccccc3CC)ccc2F)cc1,10.2%,11.6%
CCn1ncc(Br)c1CNC(=O)C1CCCN(S(=O)(=O)c2cnn(C)c2C)C1 (stereo not given),29.6%,12.4%
CS(=O)c1ccc(C(=O)OCc2cc(Cl)c3c(c2)OCCCO3)cc1 (stereo not given),3.5%,-0.8%
CCN(CC)S(=O)(=O)c1ccc(C)c(NC(=O)c2nn(-c3ccccc3)c(=O)c3ccccc23)c1,-2.9%,1.9%
COc1ccc(-c2cc(C(=O)Nc3cc(C)nn3-c3ccccc3)no2)cc1OC,-7.8%,-3.8%
Cc1oc(-c2ccccc2)nc1C(=O)NCC(=O)Nc1ccccc1Br,19.2%,7.6%
Cc1cc(Cl)ccc1NC(=O)CCS(=O)(=O)c1ccc2c(c1)CC(C)N2C(=O)C1CC1 (stereo not given),17.7%,31.5%[activator]
COc1ccc2c(c1)CCc1c(C(=O)Nc3cnn(Cc4ccc(Cl)cc4Cl)c3)noc1-2,4.3%,5.7%
Cc1nc2ccccc2c(=O)n1-c1ccccc1Cl,0.0%[22.9 µM],-13.8%[114 µM]
Cc1ccc(CNc2ncnc3onc(-c4ccc(F)cc4)c23)cc1,-10.1%,-11.3%
O=C(Nc1cccc(Cl)c1)c1csnn1,44.8%[activator],-8.2%
CCOc1ccccc1NC(=O)Cn1cnc2sc(C)c(S(=O)(=O)N3CCC(C)CC3)c2c1=O,-16.8%,-13.2%
COc1ccc(-c2cc(C(=O)Nc3c(C)nn(Cc4ccccc4C)c3C)no2)cc1,-16.8%,-13.5%
CCS(=O)(=O)N1CC(=O)N(c2ccc(Cl)cc2C)C(C)(C(=O)NC2CCCCCC2)C1 (stereo not given),4.6%,-3.2%
CC(=O)Nc1ccc(NC(=O)C(Cl)(Cl)Cl)cc1,46.3%[activator],17.6%
COC(=O)[C@H](CC(C)C)N(Cc1cn(Cc2ccccc2)nn1)S(=O)(=O)c1ccccc1Br,u,-17.3%
O=C(CN1C(=O)c2ccccc2S1(=O)=O)Nc1ccc(S(=O)(=O)N2CCCCC2)cc1,-11.8%,-8.8%
c1ccc(COc2ccc3[nH]ccc3c2)cc1,201.2%[activator],29.8%
COc1ccc(OC)c(C2c3c(oc4ccc(C)cc4c3=O)C(=O)N2CCCN(C)C)c1 (stereo not given),-23.4%,-9.4%
CCOC(=O)C1=CN(c2ccc(C)cc2)C=C(C(=O)OCC)C1c1cccc(OCC)c1,-2.3%,2.6%
COc1ccc(Cn2nnc3c(=O)[nH]c(C4CCCN(C(=O)c5ccc(C)cc5)C4)nc32)cc1 (stereo not given),-14.0%,-6.1%
COc1ccc(OC)c(C2C(C(=O)Nc3ccc(C)cc3C)=C(C)Nc3c(C(=O)Nc4ccc(F)cc4)cnn32)c1 (stereo not given),-14.7%,-3.5%
Cc1ccc2[nH]cc(CCNC3CC(=O)N(c4ccc(F)cc4)C3=O)c2c1 (stereo not given),-2.0%,-11.6%
COc1ccc(-c2nc(CSCC(=O)N3CCN(c4ccc(F)cc4)CC3)c(C)o2)cc1,u,u
CC(NC(=O)c1c2c(nc3ccccc13)C(=O)N(C1CCCCC1)C2)c1ccccc1 (stereo not given),-21.0%,10.9%
CCc1ccc(CNC(=O)C(=O)c2c(C)[nH]c3ccccc23)cc1,12.4%,50.4%[activator]
COc1ccc(F)cc1NC(=O)C1CCN(c2nc(-c3ccc(OC)c(OC)c3)no2)CC1,99.4%[activator],73.7%[activator]
COc1ccc(Cl)cc1Nc1nc2ccc(C(=O)c3ccccc3)cc2n2cnnc12,-21.2%,-14.1%
O=C(O)c1ccc(/C=C/C(=O)c2cc(Cl)ccc2Cl)cc1,-26.7%,u
COc1ccc(OC)c(NC(=O)C2CCN(S(=O)(=O)c3ccc(C)cc3)CC2)c1,-16.9%,4.2%
CC1CN(C(=O)Nc2ccc(C(=O)NCc3ccccc3F)cc2)c2ccccc2S1 (stereo not given),-4.3%,-9.8%
Cc1ccc(NC(=O)COc2ncnc3ccccc23)c([N+](=O)[O-])c1,-4.0%,-10.2%
CC(C)(C)c1noc(Cn2cnc3ccc(Cl)cc3c2=O)n1,2.2%,-6.3%
CCOc1cc(C2C(C(=O)OC(C)C)=C(C)Nc3nc4ccccc4n32)ccc1O (stereo not given),0.3%,6.9%
CCc1nnc(SCC(=O)Nc2ccc(Cl)c(Cl)c2)n1-n1cccc1,5.7%,-3.1%
COc1ccc(OC)c(S(=O)(=O)Nc2cc3c(cc2C)n(C)c(=O)c(=O)n3C)c1,-6.5%,6.5%
CCc1ccc(-c2noc(Cn3cnc4c(nnn4Cc4ccccc4)c3=O)n2)cc1,7.1%,-7.8%
COc1ccc(-n2ccnc(NCc3ccc(C)cc3)c2=O)cc1OC,1.5%,13.1%
Cc1[nH]c(-c2ccccc2)nc1C(=O)O,-8.3%,-7.2%
Cc1ccc(C(=O)OCC(=O)c2cc(C)ccc2C)cc1,23.3%,-4.4%
CCN(CC)C(=O)C1CCC(Cn2c(=O)c3sccc3n(Cc3ccccc3)c2=O)CC1 (stereo not given),-18.0%,-7.8%
COc1ccc(Oc2coc3cc(OC(=O)c4ccc(Cl)cc4)ccc3c2=O)cc1,19.2%,-7.0%
CCOC(=O)C1CCCN(C(=O)C2CCN(S(=O)(=O)c3c(C)noc3/C=C/c3ccccc3F)CC2)C1 (stereo not given),-15.3%,-2.7%

# (continued)
SMILES,StopGo FLuc,2A Renilla
CC(=O)Nc1ccc(NC(=O)CN(C)Cc2ccc(C(F)(F)F)cc2)cc1,0.0%,17.8%
CCCCCCNc1nc2c(c(=O)n(C)c(=O)n2C)n1Cc1cccc(C)c1,-0.2%,-6.7%
Cc1ccc(N2CC(NC(=O)c3ccc(S(=O)(=O)N4CCOCC4)cc3)CC2=O)cc1 (stereo not given),0.6%&-10.1%,-3.3%&3.4%
O=C(CCC(=O)c1ccc(F)cc1)OCc1cccc([N+](=O)[O-])c1,3.3%,4.0%
COc1ccc(OCC(=O)Nc2ccc(OC)c3ncccc23)cc1,u,u
COc1ccc(C[N+]2=C(N)N[C@@]3(C=C(C)Cn4c(=O)n(-c5ccccc5)c(=O)n43)C2)c(OC)c1,12.2%,31.4%[activator]
CCOc1ccccc1CNC(=O)CN1C(=O)CCc2cc(S(=O)(=O)N3CCCCC3)ccc21,-9.2%,158.1%[activator]
CCc1ccc(C2=NN(C(=O)c3ccco3)C(c3ccc4nccnc4c3)C2)cc1 (stereo not given),72.7%[activator],-12.5%
COc1ccc(-c2nnc(-c3ccco3)o2)cc1OC,40.6%[activator],39.2%[activator]
CC(=O)NC12CC3CC(C1)CC(C(=O)NCCNC(=O)c1ccc(Cl)cc1)(C3)C2,4.0%,4.0%
O=c1c2cnc3nc(C(F)(F)F)nn3c2ccn1-c1cc(Cl)ccc1Cl,-19.1%,-23.1%
CCOc1ccc(CCNS(=O)(=O)c2c(C)nc3sc(C)cn3c2=O)cc1OCC,35.7%&-16.4%[activator],10.2%&-10.8%
Cc1cc(N2CCCCCC2)n2nc(-c3ccccc3)c(C)c2n1,-8.7%,-10.7%
COc1cccc(N2CCN(C(=O)c3c(C)oc4ncnc(N5CCCCC5)c34)CC2)c1,u,u
CC(Cl)C(=O)Nc1ccc(C(N)=O)cc1 (stereo not given),11.1%,-9.9%
CC1C=CC2C(=O)N(CC(F)(F)F)C(=O)C2C1C(=O)O (stereo not given),-3.4%,3.2%
CCCCCCCn1c(SC(CC)C(=O)OCC)nc2c1c(=O)[nH]c(=O)n2C (stereo not given),2.4%,-7.4%
CCN(CC(=O)NC)S(=O)(=O)N1CCC(C)CC1,13.5%,0.4%
CCc1nnc(NC(=O)CSCc2cc(=O)c3ccc(C)cc3[nH]2)s1,-14.1%,-17.7%
O=C(COc1ccc(Br)cc1)N1CCC(c2nc3ccccc3o2)CC1,3.8%,-4.2%
COc1ccc(-c2onc(C)c2C)cc1S(=O)(=O)NCc1cccs1,50.6%[activator],5.0%
Cc1ccc(C)c(Nc2nc(-c3ccccc3)cs2)c1,211.2%[activator],19.0%
COc1cccc(-c2nc3ccccc3c(=O)n2NC(=O)c2ccc(Cl)c(Cl)c2)c1,-0.8%,10.9%
Cc1ccc(C2C(C#N)=C(N)N(N3CCOCC3)C3=C2C(=O)CC(C)(C)C3)cc1 (stereo not given),11.9%,-0.3%
CCC(=O)Oc1ccc2cc(-c3nc(-c4ccccc4C)no3)c(=O)oc2c1,196.9%[activator],11.1%
COc1cc2c(C(=O)N3CCN(c4cc(Cl)ccc4C)CC3)cn(CC(C)C)c(=O)c2cc1OC,-10.5%,-7.1%
NNc1ccc(Br)c2ccccc12,12.0%,-4.3%[1.06 µM]
CC(C)CNC(=O)Cn1c(=O)c2c(ncn2C)n(C)c1=O,-3.5%,-15.8%
CCc1nn(CC(=O)N(CC)Cc2ccccc2)c(=O)c2cc3occc3n12,9.4%,62.4%[activator]
CCC(=O)N1CCc2cc(Br)cc(S(=O)(=O)CCC(=O)Nc3ccc(CC)cc3)c21,-11.7%,5.5%

# Some of these compounds in order of SMILES length, highest first:
SMILES,StopGo FLuc,2A Renilla
CC(=O)Nc1ccc(NC(=O)CN(C)Cc2ccc(C(F)(F)F)cc2)cc1,0.0%,17.8%
O=c1c2cnc3nc(C(F)(F)F)nn3c2ccn1-c1cc(Cl)ccc1Cl,-19.1%,-23.1%
COc1ccc(-c2nnc(-c3ccco3)o2)cc1OC,40.6%[activator],39.2%[activator]

# Entries listed so far with a COOH group (6):
SMILES,StopGo FLuc,2A Renilla
COc1ccc(CNC(=O)C2CCN(S(=O)(=O)c3ccc4nc5c(c(C(=O)O)c4c3)CC(C)CC5)CC2)cc1 (stereo not given),6.6%,-12.6%
O=C(O)CNS(=O)(=O)c1ccc(Br)cc1,24.0%,-3.9%
COc1cc(C(=O)O)c(Br)cc1OC(C)C,-2.0%,-5.0%
O=C(O)c1ccc(/C=C/C(=O)c2cc(Cl)ccc2Cl)cc1,-26.7%,u
Cc1[nH]c(-c2ccccc2)nc1C(=O)O,-8.3%,-7.2%
CC1C=CC2C(=O)N(CC(F)(F)F)C(=O)C2C1C(=O)O (stereo not given),-3.4%,3.2%

# Other results follow:
SMILES,StopGo FLuc,2A Renilla
O=C(Cn1ccc2ccc(Cl)cc21)NCC1CCC(C(=O)O)CC1 (stereo not given),11.0%,-6.7%
Cc1ccc(S(=O)(=O)NCC2(c3ccccc3)CC2)c(Cl)c1,39.7%[activator],211.4%[activator]
CCOc1ccc(OCCCCOc2cccc(Br)c2)cc1,7.0%,-0.2%
CCCCCCn1nc(C(=O)NCc2ccc(C(=O)O)cc2)c2ccccc2c1=O,0.0%,32.7%[activator]
CC12CCC(C[N+](C)(CCC[N+](C)(C)C)C1)C2(C)C (stereo not given),4.5%,3.8%
CCOC(=O)c1[nH]c2ccccc2c1NC(=O)c1c(F)cccc1F,-5.8%,2.4%
COc1ccc(CC(=O)NC(C)c2cccs2)cc1OC (stereo not given),6.1%,3.3%
COCCCn1c(=O)c2sccc2n2c(CCCC(=O)Nc3cccc(OC)c3)nnc12,-3.2%,-6.7%
CCn1nccc1-c1cc(C(=O)O)c2ccc(C)c(C)c2n1,-5.7%,-9.0%
Cc1ccc(NC(=O)Cn2c(SCc3cccc(F)c3)nc3ccncc32)c(C)c1,-9.8%,-11.3%
